# Bioassay records from PubChem BioAssay.
# Hsc70 = Hsc70 inhibitors, probe displacement, primary screen, biochemical, fluorescence polarization (AID 568) | displacement, % at 20 µM, or IC50 in µM where a hit was titrated | 83,000 tested, under 10 active | Hsc70 fluorescence polarization, probe displacement; higher % means a stronger effect; strong numbers were not always called active;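 active means displacement above 50% without optical interference and an IC50 on retest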;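 further: ATPase domain with a fluorescein-tagged ATP probe; 0% = vehicle and 100% = excess ADP; read after one hour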
# WNV protease inh = WNV NS2B-NS3 proteinase inhibition; P06935; WNV NS2B-NS3 protease, fluorogenic substrate Ex360/Em465; hits give low values; z-score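 (tested at a level between 10 and 100 µM)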; hit rate 0.18% among 65,000;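 active means z-score at -3 or under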;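 further: score is relative to mean and spread of the compound wells of a plate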
# Target sequence (P06935 1371-1501 limits assumed): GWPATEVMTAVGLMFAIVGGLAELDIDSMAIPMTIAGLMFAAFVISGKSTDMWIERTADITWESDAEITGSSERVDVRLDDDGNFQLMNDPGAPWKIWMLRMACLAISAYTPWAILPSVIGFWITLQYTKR
# Target sequence (P06935 1502-1679 limits assumed): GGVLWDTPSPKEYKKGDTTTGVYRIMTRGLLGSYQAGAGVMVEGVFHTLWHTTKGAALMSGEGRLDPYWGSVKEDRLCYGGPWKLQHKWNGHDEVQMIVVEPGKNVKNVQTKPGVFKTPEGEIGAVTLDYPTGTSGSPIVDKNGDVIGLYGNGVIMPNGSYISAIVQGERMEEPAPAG
# MT1-MMP promoter = MT1-MMP gene expression reporter suppression – cell-based, luciferase reporter, luminescence (AID 618); calls from a first round at 10 µM; hits with a dose series show EC50 in µM; MT1-MMP promoter luciferase reporter cells, luminescence; hit rate 0.62% among 87,000;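 active means over half of the reporter light lost at 10 µM or EC50 under 50 µM; inactive means the rest and hits that failed the dose series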;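 further: actives suppress MT1-MMP promoter-driven transcription so potencies describe inhibitors; HT1080 fibrosarcoma cells; overnight exposure; toxic or luciferase-blocking compounds were not removed from the actives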
# Active calls of the source: *; i = inactive; . = no result given; + = active, no number.
# Values run as follows: Hsc70, WNV protease inh, MT1-MMP promoter
COc1cc2[nH]c(=O)n(CCC(=O)N3CCN(c4cc(Cl)ccc4C)CC3)c(=O)c2cc1OC
    -3.0%, ., i
CN(C)c1ccc(/C=C(\C#N)C(=O)Nc2nc3c(s2)CCN(Cc2ccccc2)C3)cc1
    -53.2%, ., i
CC(=O)Nc1nonc1C(=O)N1CCC(C)CC1
    3.9%, 0.42, i
O=C(Cn1cc(C(=O)C2CC2)c2ccccc21)NCc1ccccc1
    0.4%, ., i
COc1ccc(Cn2c(-c3ccco3)nc3oc4cc(OC)ccc4c(=O)c3c2=O)cc1
    -1.2%, -1.32, i
Cc1cc(C)nc(NC(=O)Cc2cccs2)n1
    3.1%, -0.56, i
C=CCNc1oc(-c2ccc(OC)cc2)nc1C#N
    28.3%, 0.17, i
CCOC(=O)Cc1csc(NC(=O)CSc2nnc(C(C)C)n2CC)n1
    -3.7%, 0.73, i
COc1ccc(-c2ccc(-c3noc(-c4ccccc4F)n3)c(OC)n2)cc1
    -24.3%, 0.64, i
COc1ccc(N2C(=O)CSC2c2ccc3c(c2)OCO3)cc1 (stereo unspecified)
    2.0%, -0.13, i
Clc1ccc(C(c2nnnn2C2CCCC2)N2CCN(c3nc4ccccc4s3)CC2)cc1 (stereo unspecified)
    -6.5%, ., i
O=C(CCNS(=O)(=O)c1cccc2nsnc12)NC1CCCc2ccccc21 (stereo unspecified)
    3.1%, 1.69, i
CC(C)(C)c1cc(C(=O)N2CCN(c3ncccn3)CC2)ccn1
    1.2%, 0.8, i
Cc1ccc(NC(=O)Cn2nc(C)cc2C)cc1
    0.4%, 0.24, i
Cn1c(-c2ccco2)nc2cc3ccccc3cc21
    -0.9%, 1.04, +

# Two records picked at random from the list so far:
# Values run as follows: Hsc70, WNV protease inh, MT1-MMP promoter
Cn1c(-c2ccco2)nc2cc3ccccc3cc21
    -0.9%, 1.04, +
O=C(CCNS(=O)(=O)c1cccc2nsnc12)NC1CCCc2ccccc21 (stereo unspecified)
    3.1%, 1.69, i

# The listing continues.
# Values run as follows: Hsc70, WNV protease inh, MT1-MMP promoter
Cc1ccc2c(c1)C(O)(CC(=O)c1ccc3c(c1)OCO3)C(=O)N2 (stereo unspecified)
    -3.0%, 0.08, i
O=C(c1ccc(CS(=O)(=O)c2ccc(Br)cc2)o1)N1CCCC1
    -6.0%, -0.46, i
CC1(C)CC(=O)C2=C(C1)Nc1ccccc1N1C(=O)c3ccccc3C21 (stereo unspecified)
    -0.5%, ., i
CN1CCN(CCC(=O)Nc2cccc(F)c2)CC1
    1.0%, -0.21, i
CCc1nnc(NC(=O)CSc2nnc(-c3ccco3)n2CC)s1
    -2.2%, -0.64, i
CC(C)C(=O)N1C2CCC1CC(O)(c1ccc(F)cc1)C2 (stereo unspecified)
    -0.8%, ., i
CC1(C)Cc2nc(NCCN3CCOCC3)c(C#N)cc2CO1
    4.3%, -0.23, i
COc1cccc(-n2cnc3scc(-c4cccs4)c3c2=O)c1
    -8.0%, 0.28, i
O=C(CSc1nnc(-c2ccco2)n1Cc1ccco1)N1CCOCC1
    11.4%, -0.75, i
CCCS(=O)(=O)N1CCC(C(=O)NC2CCCCC2C)CC1 (stereo unspecified)
    -6.1%, -1.1, i
CC(C)Cc1nnc(NC(=O)CSc2nc(N)cc(=O)[nH]2)s1
    -0.3%, ., i
CCn1c(SCC(=O)N2CCN(c3ccccc3F)CC2)nnc1-c1ccoc1C
    2.2%, -0.31, i
Cc1cccc(-c2cc3nc(C)cc(NCCCn4ccnc4)n3n2)c1
    0.7%, ., i
O=C(O)c1cccc(C(=O)O)n1
    2.0%, 0.5, i
COc1ccc(O)c(/C=N/c2sc(C)c(C)c2C#N)c1
    -89.1%, ., i
COc1cc(N=c2ssnc2Cl)cc(OC)c1
    -2.3%, -0.56, i
CC(C)c1ccc(NC(=O)C2CC(=O)N(C(C)C)C2)cc1 (stereo unspecified)
    -0.5%, 0.39, i
O=C(Cn1cc2c(n1)CCCC2)NCc1cccs1
    1.1%, -0.65, i
NC(=O)c1ccsc1NC(=O)CSc1nnc(C2CC2)n1Cc1ccccc1
    -1.7%, ., i
CCCOc1ccc(C(=O)N/N=C/c2ccc(-c3ccc(S(=O)(=O)Nc4ncccn4)cc3)o2)cc1
    3.2%, ., i
COc1cc(CNc2ccc(N3CCOCC3)c(C(=O)O)c2)ccc1OCC(N)=O
    6.9%, -0.44, i
CCOC(=O)C1CCN(C(=O)CSc2n[nH]c(=O)[nH]c2=O)CC1
    3.1%, -0.42, i
COc1ccccc1CNC(=O)c1nnc(Cc2ccc(Cl)cc2)o1
    0.2%, 0.58, i
COc1ccc(S(=O)(=O)NCCC(=O)NC(C)c2ccccc2)cc1 (stereo unspecified)
    7.4%, -0.89, i
O=C(NC1CCc2ccccc21)C1CCN(S(=O)(=O)c2ccc(-n3cnnn3)cc2)CC1 (stereo unspecified)
    -2.0%, 0.04, i
O=C(Cc1ccccc1)NC(NCCCN1CCOCC1)(C(F)(F)F)C(F)(F)F
    -1.9%, -1.02, i
CCCC(=O)Nc1ccc(OCC(=O)OC)cc1
    4.7%, 0.24, i
O=c1c2cnn(-c3ccc(F)cc3)c2ncn1Cc1cccnc1
    1.0%, 0.39, i
COc1ccc2nc(NS(=O)(=O)c3ccc(NC(C)=O)cc3)sc2c1
    0.8%, -1.52, i
CC1(N2CCOCC2)CC2(O)C(=[N+]1[O-])CCc1c2no[n+]1[O-] (stereo unspecified)
    7.0%, -0.81, i
O=C(c1ccccc1)N1CCN(c2ncnc3sc4c(c23)CCC4)CC1
    2.3%, ., i
COc1ccc(-c2nnc(SCC(=O)Nc3ccccc3)n2C)cc1
    -9.2%, -0.04, i
Cc1ccc(CNC(=O)C2CCC(=O)N2C2CCCCC2)cc1 (stereo unspecified)
    4.3%, -0.02, i
Cn1c(C(=O)N2CCN(Cc3ccc4c(c3)OCO4)CC2)cc2sccc21
    -6.3%, -0.16, i
CN(C)c1ccc(C(=O)OCC(=O)NC2CCCCC2)cc1
    -5.9%, -0.66, i
O=S(=O)(c1ccc(-n2cnnn2)cc1)N(C1CCCCC1)C1CCCCC1
    4.0%, -0.34, i
Cc1cc(SCCOc2ccccc2)nc(N)n1
    -2.1%, ., i
CN(C)Cc1cc(CCNC(=O)c2ccc(Cl)cc2)ccc1O
    -0.5%, 1.89, i
O=C(CN1C(=O)COc2ccccc21)N(Cc1cccnc1)Cc1ccccc1F
    -1.3%, -0.88, i
CC1CCCC(NC2CCCCNC2=O)C1 (stereo unspecified)
    -0.2%, -0.12, i
Cc1cc(=O)n2nc(N3CCC(C(=O)NC(C)c4ccccc4)CC3)sc2n1 (stereo unspecified)
    -1.1%, ., i
COc1cccc(/C=N/n2c(N)nc3ccccc32)c1OC
    7.1%, ., i
O=C1c2ccccc2C(=O)N1CCCn1c(=O)oc2ccccc21
    1.8%, 0.47, i
CCC(C)[C@@H](C(=O)NCC1CCC(C(=O)O)CC1)n1nnc2ccccc2c1=O (stereo partly specified)
    -1.3%, ., i
CC(C)CCC(C)N=Cc1c(O)n(Cc2ccccc2)c(=O)c2ccccc12 (stereo unspecified)
    4.6%, ., i
Cc1nc(N2CCC3(CC2)OCCO3)c2nnn(Cc3ccccc3F)c2n1
    2.2%, -0.41, i
COc1cc(C2=NOC(C(=O)NCc3ccc(F)cc3)C2)cc(OC)c1OC (stereo unspecified)
    -4.9%, -0.82, i
COC(=O)NC(=S)Nc1ccc(Oc2ccc(Cl)cc2Cl)c(Cl)c1
    -4.1%, ., i
Cc1cc(N2C(=O)C3CC=CC(C)C3C2=O)no1 (stereo unspecified)
    0.4%, ., i
CSc1ccc(-c2nc(CSCC(=O)NCCCN3CCOCC3)c(C)o2)cc1
    5.9%, ., i
COc1cccc(C2C(C(=O)c3ccco3)=C(O)C(=O)N2CCCN2CCOCC2)c1OC (stereo unspecified)
    3.3%, -0.83, i
Cc1ccc(/C=N/n2c(C)cc(C)c(C#N)c2=O)cc1
    -0.6%, ., i
CC(C)NC(=O)c1ccc(CS(=O)(=O)c2ccc(Br)cc2)o1
    -1.4%, -1.7, i
CCN1CCN(c2ncnc3c2sc2nc(N4CCOCC4)c4c(c23)CCC4)CC1
    1.6%, -0.1, i
O=C(NCCC1=CCCCC1)C1CCCN(S(=O)(=O)c2ccc(F)cc2)C1 (stereo unspecified)
    2.4%, 0.36, i
C=CCn1c(COC)nnc1SCC(=O)c1ccc(F)cc1
    -5.5%, -0.32, i
O=c1ccnc(Sc2ncccc2[N+](=O)[O-])[nH]1
    0.4%, ., i
Cc1ccc(C(c2nnnn2CCc2ccccc2)N2CCSCC2)cc1 (stereo unspecified)
    4.0%, -0.91, i
COC(=O)c1cc(-c2ccccc2)sc1N
    7.5%, ., i
CCOC(=O)Cc1csc(SCC(=O)Nc2cccc(C#N)c2)n1
    4.7%, 1.98, i

# (list continues)
# Values run as follows: Hsc70, WNV protease inh, MT1-MMP promoter
COc1ccccc1OCC(=O)NCc1cccs1
    -1.5%, 1.73, i
CC(=O)n1nc2nc(C)cc(C)c2c1N
    8.3%, 0.79, i
CC(C)C(NC(=O)C1CCCCC1)C(=O)NC1=NCCS1 (stereo unspecified)
    -2.3%, ., i
COCCN(C(=O)C1CC1)c1nnc(-c2cccc(C)c2)s1
    2.0%, 1.89, i
CCOc1ccc(NC(=O)c2cccnc2C(=O)O)cc1
    5.1%, -0.93, i
Cc1cc(=O)oc(C)c1C(=O)Nc1c(C)n(C)n(-c2ccccc2)c1=O
    1.6%, ., i
COc1ccc(C(=O)Nc2cccc(C(C)=O)c2)cc1S(=O)(=O)N1CCOCC1
    0.8%, -1.03, i
CCn1c(SCC(=O)Nc2ccc3c(c2)OCO3)nc2c(c1=O)SC(C)C2 (stereo unspecified)
    2.4%, -0.22, i
c1ccc(Nc2nc(N3CCCCC3)nc(N3CCCCC3)n2)cc1
    -3.4%, ., i
O=C(N1CCOCC1)N1CCN(c2ccccn2)CC1
    3.5%, 0.33, i
CCc1c(C)n([O-])c2c([n+]1=O)CCC2
    9.5%, -0.08, i
COc1ccc(Cl)cc1N1C(=O)C2CCCN2C1c1sccc1C (stereo unspecified)
    -0.2%, 2.61, i
COc1cccc(C(C(=O)NC2CCCC2)N(Cc2ccc(C)cc2)C(=O)c2ccco2)c1OC (stereo unspecified)
    2.0%, ., i
Cc1noc(C)c1CSc1nc2ccccc2c(=O)n1-c1ccc(Cl)cc1
    3.4%, ., i
Cc1ccc(S(=O)(=O)N2CCC(C(=O)N[C@@H](C)C(=O)NCc3ccccc3)CC2)cc1
    0.8%, -0.6, i

# An excerpt from above, reduced to MT1-MMP promoter.
SMILES | MT1-MMP promoter
COc1ccccc1OCC(=O)NCc1cccs1 | i
COCCN(C(=O)C1CC1)c1nnc(-c2cccc(C)c2)s1 | i
CCOc1ccc(NC(=O)c2cccnc2C(=O)O)cc1 | i
COc1ccc(Cl)cc1N1C(=O)C2CCCN2C1c1sccc1C (stereo unspecified) | i
CCc1c(C)n([O-])c2c([n+]1=O)CCC2 | i

# The list continues.
# Values run as follows: Hsc70, WNV protease inh, MT1-MMP promoter
CCCCn1ccnc1C(=O)c1ccc(S(=O)(=O)N(CCOC)CCOC)cc1
    5.7%, -0.41, i
CCC(c1nnnn1Cc1ccco1)N(CCN1CCOCC1)Cc1cc2cc(C)ccc2[nH]c1=O (stereo unspecified)
    6.3%, -1.18, i
COc1ccc(OC)c(NC(=O)C2CCN(c3ncccn3)CC2)c1
    1.3%, 0.1, i
COc1ccc(C(O)C(CN2CCOCC2)c2ccccc2)cc1F (stereo unspecified)
    4.9%, 0.38, i
Cn1c(=O)c(=O)n(C)c2cc(S(=O)(=O)Nc3ccc4c(c3)OCCO4)ccc21
    6.7%, -0.37, i
COC(=O)c1sccc1NC(=O)c1ccco1
    4.9%, -0.14, i
CC(=O)Nc1cc(-c2nn(C)c(=O)c3ccccc23)ccc1N1CCOCC1
    3.4%, ., i
CCN1CCN(CC(=O)c2c[nH]c3ccc(C)cc23)CC1
    3.6%, ., i
COCCNC(=O)C(C)OC(=O)c1nsc(Cl)c1Cl (stereo unspecified)
    2.2%, 1.84, i
O=C(CSc1nc2c(c(C(F)(F)F)n1)CCc1ccccc1-2)NCc1ccccc1
    -6.5%, ., i
CCOC(=O)C1CCN(C/C=C/c2ccccc2OC)CC1
    -0.8%, -0.56, i
c1ccc(SCCc2ccncc2)cc1
    5.3%, ., i
CCC(C#CCN1CCOCC1)(CC)OCCC#N
    6.5%, -0.47, i
Cc1cccc(-c2nc(=S)c3c(n2Cc2ccco2)CCCC3)c1
    2.5%, ., i
c1cc(-c2noc(CCC3CCCC3)n2)ccn1
    -0.3%, 0.6, i
CC(C)Cn1c(N)c(C(=O)COC(=O)C2=COCCO2)c(=O)n(C)c1=O
    -4.4%, -0.7, i
Cc1nn(C)c(C)c1S(=O)(=O)N(CC(=O)Nc1ccc2c(c1)OCO2)c1ccc(C(C)C)cc1
    5.7%, -0.93, i
COc1ccc(-c2csc(N3CCC(C(N)=O)(N4CCCCC4)CC3)n2)cc1
    -1.7%, -0.93, i
CCOC(=O)C1CCN(C(=O)COc2ccc(N(C)S(=O)(=O)c3cccs3)cc2)CC1
    0.6%, -1.98, i
CCn1c(CNC(=O)c2cccs2)nnc1SCC(=O)Nc1ccc(Cl)cc1
    1.1%, ., i

# Some of the compounds tested. The share of hits here may be higher or lower than overall.
